Bead autofluor: flagged as autofluorescent in microsphere protease counterscreen. compound autofluorescence counterscreen, microsphere flow cytometry; hits give high values. fluorescence intensity (no concentration beside the values). 3.1% of 360,000 active. AID 624483;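 active = at least 3 SD above the mean of all compounds, about 16000 in these data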;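 note: 100 nL of 1 mM stock went into each well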
PrP UTR inh: inhibition of PrP 5' UTR reporter expression; 0.35% of 340,000 active; AID 488862; cell-based PrP 5' UTR mRNA reporter, plate reader; inhibition, % (no concentration beside the values);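 active = every replicate at 50% or more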;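 note: 0 = median of the neutral control wells; tested in H4 reporter cells; numbers are from one replicate; inactives centre near -14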
Mtb hypoxia rep: Mtb hypoxia fluorescent reporter inhibition; M. tuberculosis hypoxia-regulated fluorescent reporter, fluorescence; fluorescence inhibition, % (no concentration beside the values); 0.1% of 300,000 active; AID 1159583;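 active = 35 to 45% if threefold the growth effect, above 45% if 1.5-fold the growth effect; inactive = the rest, general growth blockers included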;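 note: wells of about 50 µL received 100 nL stock; 0% = vehicle wells and 100% = reference inhibitor wells; whole bacteria with a GFP reporter of the hypoxia response; strong numbers were not always called active; many hits fall short of the cut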
BJeLR lethal: kills HRASV12-expressing BJeLR cells; 0.17% of 300,000 active; AID 1554; inhibition, % (test concentration not listed); BJeLR (HRASV12) viability, CellTiter-Glo ATP luminescence, 48 h; reference of the scale not given here;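 active = replicate mean above 50%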;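 note: 50 nL library stock added to about 25 µL; numbers are from one replicate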
ugtP null kill: kills S. aureus RN4220 lacking UgtP. 0.54% of 330,000 active. AID 1259309. growth inhibition, % (no concentration beside the values). S. aureus RN4220 ugtP deletion, OD600 growth, 16 h; some inactives read as strong as hits;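 active = z-score under -3 and OD600 up to 0.15 on both plates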;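 note: plate controls were untreated wells for no effect and antibiotic for full effect; wells of about 80 µL received 100 nL stock; the first replicate is given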
RN4220 kill: S. aureus RN4220 growth inhibition; OD600, 16 h; inhibition, % (test concentration not listed); 0.33% of 330,000 active; AID 1259311;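 active = z-score of -3 or lower and OD600 up to 0.18 on both plates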;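 note: plate controls were untreated cells for no effect and reference antibiotic for full effect; stock transfer was 100 nL into about 80 µL; one replicate is shown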
Mtb hypoxia rep growth: also measured in Mtb hypoxia rep; calls as there; growth inhibition, %; measured here: M. tuberculosis growth (absorbance);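 0% = vehicle and 100% = reference antibiotic; read after six days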
Active calls of the source: *; . = no result given.

Screens in order – Bead autofluor	PrP UTR inh	Mtb hypoxia rep	Mtb hypoxia rep growth	BJeLR lethal	ugtP null kill	RN4220 kill
Cc1ccc(C(=O)O)cc1NC(=S)NC(=O)c1ccc([N+](=O)[O-])c(C)c1
    4272	5	-10	2	.	9	1.8
CCOC(=O)Cc1[nH]nc2c1C(c1cc(OC)ccc1OC)C(C#N)=C(N)O2 (stereo unspecified)
    21991*	-11	1	5	-1	1	2.4
N#C/C(=C\c1c(N2CCC(C(N)=O)CC2)nc2ccccn2c1=O)C(=O)NC1CCCCC1
    5098	-18	1	-2	-9	-3	4.0
COc1ccccc1Nc1nc2ccccc2n1C
    5179	-58	10	2	0	10	3.3
O=C(COC(=O)c1c[nH]c(=O)[nH]c1=O)Nc1ccccc1F
    3332	-22	12	2	0	3	13
Cn1nnnc1Sc1c(Cl)cccc1[N+](=O)[O-]
    2570	-15	2	2	6	11	-0.6
O=C1CCCC(=NNC(=O)c2cc3ccccc3cc2O)C1
    3820	-40	7	9	.	-1	0.9
O=C(CN1CCC(NC(=O)Nc2ccccc2)CC1)Nc1ccccc1F
    3606	-21	-3	-3	-4	-5	6.2
COc1ccc(OC)c(-n2c(=S)[nH]c3cc(C(=O)N(C)Cc4ccccc4)ccc3c2=O)c1
    4105	-12	11	5	4	-76	7.2
Cc1cc(NC(=O)CCSc2ccccc2)ccc1Br
    2451	-50	4	8	-10	-21	-12
COc1ccc(C(=O)NCCNc2ccccc2[N+](=O)[O-])cc1
    5250	-116	1	12	2	6	4.4
Cc1ccc(N2CCN(C(=S)c3ccc(N(C)C)cc3)CC2)cc1
    8449	-31	4	-5	4	11	2.2
O=C(NCCN1CCOCC1)c1cnn2c1NC(c1cccs1)CC2C(F)(F)F (stereo unspecified)
    4356	-14	-5	5	-20	5	3.2
O=C(NCCN1CCN(c2ccccc2F)CC1)C1CCCN(S(=O)(=O)c2cnc[nH]2)C1 (stereo unspecified)
    5465	-46	.	.	-2	8	1.2
COc1c(S(=O)(=O)NCCCn2ccnc2)ccc(Cl)c1Cl
    3852	-21	10	9	1	5	0.0
Cc1ccc(/C=N/N(Cc2ccccc2)c2ccccc2)o1
    2498	-4	.	.	1	.	.
Cc1scc(C(=O)NNC(=S)NCC(C)C)c1C
    2418	-17	5	2	1	6	4.1
CCn1c(C)nc2cc(C(=O)NN=Cc3ccc(O)cc3)ccc21
    .	.	5	11	.	11	2.5
Cc1cccc(C(=O)NCc2nnc3c4ccccc4c(-c4ccccc4)nn23)c1
    2488	-2	6	4	-1	-4	13
CN1c2ccsc2/C(=N/NC(=O)c2c(F)cccc2F)CS1(=O)=O
    4922	-9	.	.	-3	.	.
Cc1ccc2nc(-c3ccncc3)cc(C(=O)Nc3ccncc3)c2c1
    6587	-17	-7	-3	7	2	4.4
Cc1onc(-c2ccccc2)c1C(=O)OCCOc1ccc([N+](=O)[O-])cc1[N+](=O)[O-]
    3967	-11	22	0	7	4	2.6
CCN(CC)C(=O)CSc1nnc2cc(C)c3ccccc3n12
    4675	1	18	12	-5	5	1.0
N#C/C(=C\c1ccc(Sc2nc3ccccc3[nH]2)o1)c1ccccc1
    2835	-15	.	.	-2	40	-4.8
Cc1ccc(S(=O)(=O)c2cnc(-c3ccccc3)nc2N2CCCCC2)cc1
    3570	-25	4	7	-6	15	2.8
CCOc1ccccc1N(C(=O)CNC(=O)c1ccco1)C(C(=O)NC1CCCC1)c1ccncc1 (stereo unspecified)
    3584	-29	4	5	-2	9	3.9
C=CCn1c(SCC(=O)Nc2sc3c(c2C#N)CCC3)nnc1C1COc2ccccc2O1 (stereo unspecified)
    5840	-8	.	.	8	2	4.3
CCOC(=O)Cc1c[nH]c(=S)[nH]c1=O
    2965	1	.	.	-14	.	.
CC1=NN(c2ccc(Br)cc2)C(=O)/C1=C/c1cccs1
    3193	-20	7	0	-11	-3	-1.2
CCOC(=O)N1CCN(C(=O)c2cccc(F)c2)CC1
    2031	-15	-4	2	6	13	2.9

14 neighbouring records already listed, quoted:
Screens in order – Bead autofluor	PrP UTR inh	Mtb hypoxia rep	Mtb hypoxia rep growth	BJeLR lethal	ugtP null kill	RN4220 kill
N#C/C(=C\c1c(N2CCC(C(N)=O)CC2)nc2ccccn2c1=O)C(=O)NC1CCCCC1
    5098	-18	1	-2	-9	-3	4.0
COc1ccccc1Nc1nc2ccccc2n1C
    5179	-58	10	2	0	10	3.3
O=C(COC(=O)c1c[nH]c(=O)[nH]c1=O)Nc1ccccc1F
    3332	-22	12	2	0	3	13
Cn1nnnc1Sc1c(Cl)cccc1[N+](=O)[O-]
    2570	-15	2	2	6	11	-0.6
O=C1CCCC(=NNC(=O)c2cc3ccccc3cc2O)C1
    3820	-40	7	9	.	-1	0.9
O=C(CN1CCC(NC(=O)Nc2ccccc2)CC1)Nc1ccccc1F
    3606	-21	-3	-3	-4	-5	6.2
COc1ccc(OC)c(-n2c(=S)[nH]c3cc(C(=O)N(C)Cc4ccccc4)ccc3c2=O)c1
    4105	-12	11	5	4	-76	7.2
Cc1cc(NC(=O)CCSc2ccccc2)ccc1Br
    2451	-50	4	8	-10	-21	-12
COc1ccc(C(=O)NCCNc2ccccc2[N+](=O)[O-])cc1
    5250	-116	1	12	2	6	4.4
Cc1ccc(N2CCN(C(=S)c3ccc(N(C)C)cc3)CC2)cc1
    8449	-31	4	-5	4	11	2.2
O=C(NCCN1CCOCC1)c1cnn2c1NC(c1cccs1)CC2C(F)(F)F (stereo unspecified)
    4356	-14	-5	5	-20	5	3.2
O=C(NCCN1CCN(c2ccccc2F)CC1)C1CCCN(S(=O)(=O)c2cnc[nH]2)C1 (stereo unspecified)
    5465	-46	.	.	-2	8	1.2
COc1c(S(=O)(=O)NCCCn2ccnc2)ccc(Cl)c1Cl
    3852	-21	10	9	1	5	0.0
Cc1ccc(/C=N/N(Cc2ccccc2)c2ccccc2)o1
    2498	-4	.	.	1	.	.

Next section:
Screens in order – Bead autofluor	PrP UTR inh	Mtb hypoxia rep	Mtb hypoxia rep growth	BJeLR lethal	ugtP null kill	RN4220 kill
CCCOc1cccc(C(=O)Nc2ccc(Br)cc2F)c1
    7221	-29	9	4	7	2	2.1
O=C(Cn1ncc2c1-c1ccccc1OC2)N1CCN(c2ccccn2)CC1
    4267	-5	-5	7	10	-4	-4.8
CCOc1ccc(N(CC(=O)NCc2ccc(OC)cc2)C(=O)CCC(=O)Nc2nccs2)cc1
    3330	-21	2	5	-2	11	-1.6
CC(=O)N(c1ccccc1C)c1ccccc1C
    2828	-3	11	2	.	11	7.0
CCOc1cc(/C=C/C(=O)O)ccc1OCc1ccccc1
    4501	-9	6	8	-7	10	4.6
CCOC(=O)C(C)Sc1snnc1C (stereo unspecified)
    9591	-18	-3	3	12	9	0.2
CC1(C)Cc2cccc(C(=O)Nc3ccc(F)cc3F)c2O1
    4087	-17	-3	0	-7	6	-6.4
CC(=NNC(=O)Cc1ccccc1)c1cccnc1
    .	.	-1	-8	.	8	3.9
COC(=O)c1ccc(N2CCOCC2)c(NC(=O)c2cccs2)c1
    5483	-19	3	-12	-12	9	0.3
COc1ccc(S(=O)(=O)N2CCOCC2)cc1NC(=O)COC(=O)C1CCC1
    3737	4	-5	3	.	1	2.8
CCC(C)N=Cc1c(Nc2ccccc2)nc2c(C)cccn2c1=O (stereo unspecified)
    4715	-2	51*	24*	-2	13	6.0
CC(NC(=O)C(=O)c1cn(CC(=O)N2CCOCC2)c2ccccc12)c1ccccc1 (stereo unspecified)
    5349	0	-1	5	7	2	0.1
Cc1cc(OCC(=O)O/N=C(\N)c2ccccc2)ccc1Cl
    2432	-14	0	-1	.	8	1.5
CC(C)(C)OC(=O)NCCCCC(C(=O)NCCCCCCCCCCC(=O)N1CCN(C(=O)OC(C)(C)C)CC1)n1cc(CCCC(=O)O)nn1 (stereo unspecified)
    .	.	2	10	.	3	7.0
COc1ccc(NC(=O)CC2SC(=Nc3nccs3)N(C)C2=O)cc1 (stereo unspecified)
    .	.	8	1	.	5	2.5
Cn1c(SCC(=O)NC2CCCC2)nnc1-c1cccs1
    3526	-8	-11	7	-5	4	1.1
COc1cccc(OCC(=O)Nc2ccncc2)c1
    3944	-30	14	4	0	7	5.3
CCN(CC)CCNC(=O)C(=O)Nc1ccc2c(c1)N(S(=O)(=O)c1cccs1)CCC2
    5188	-6	2	4	1	4	1.0
CCCCCCN(CCCCCC)C(=O)Cc1c(-c2ccc(F)cc2)[nH]c2ccccc12
    4238	-11	11	10	.	10	-3.6
CN1CCN(S(=O)(=O)c2cccc(C(=O)NC3CCCC3)c2)CC1
    4566	-8	-2	-6	-6	0	1.8
c1ccc2oc(-c3csc(N4CCOCC4)n3)cc2c1
    3781	-24	1	1	-17	-1	9.7
CC(=O)NC1C(=O)N=C(SC(C)C(=O)Nc2cccc(Cl)c2)NC1=O (stereo unspecified)
    4537	-14	5	-7	5	5	6.2
CCOC(=O)N1CCN(C(=O)Nc2ccc(Cl)cc2Cl)CC1
    5011	-44	.	.	-1	11	1.2
CCOc1cc(/C=C2\SC(N3CCCC(C)C3)=NC2=O)ccc1O (stereo unspecified)
    4064	-27	-2	11	-4	1	4.0
O=C(CN(Cc1ccc(F)cc1)C(=O)C1CSC(=O)C1)NC1CCCCC1 (stereo unspecified)
    8455	-21	-1	5	3	-5	6.2
CC(=O)c1cccc(-n2nnnc2SCC(=O)Nc2cc(C)on2)c1
    3541	-22	12	10	-9	10	1.0
CCOC(=O)N1CCN(CC(=O)Nc2ccccc2C(=O)Nc2ccccc2)CC1
    4671	-20	-4	-2	.	1	6.1
Cc1cc2oc(C(=O)N(Cc3ccc(N(C)C)cc3)CC3CCCO3)c(C)c2cc1C (stereo unspecified)
    5183	-13	-7	-4	5	28	3.8
O=C(COC(=O)c1ccccc1C(=O)c1ccccc1)c1ccco1
    23737*	-20	4	8	1	-2	2.0
COc1ccc(S(=O)(=O)NCCC(C)C)cc1C
    23019*	-9	12	19	-8	12	4.6
CCOC(=O)c1ccc(NC(=O)[C@@H](NC(N)=O)C(C)C)cc1
    4626	-15	4	5	-2	8	1.1
CC(CC(=O)NCc1ccco1)S(=O)(=O)c1ccc2c(c1)CCN2C(=O)C1CC1 (stereo unspecified)
    4351	-5	-4	4	-17	8	0.7
CN(C)C(=O)C[n+]1ccc(C=NO)cc1
    .	.	-4	0	.	5	4.5
CC(C)(C)c1ccc(OC(=O)N2CCOCC2)cc1
    4457	-44	-5	-12	-8	-3	-3.6
CC(Oc1ccc(Cl)cc1)C(=O)NCCN1C(=O)SC(=Cc2cccnc2)C1=O (stereo unspecified)
    .	.	3	5	.	-8	9.0
COc1ccc(OCC(O)CNC(=O)c2ccc(Br)cc2)cc1 (stereo unspecified)
    21623*	-1	0	7	0	3	5.3
Cc1cc(C(=O)COC(=O)/C=C/c2cccc(Br)c2)c(C)n1C
    5150	-19	-4	-6	.	8	5.7
CC1Cc2cc(S(=O)(=O)N3CCC(C(N)=O)CC3)ccc2N1C(=O)C1CC1 (stereo unspecified)
    5058	-29	7	5	26	9	1.3
CCCCN(C)CCNC(=O)c1ccc(Cn2c(=S)[nH]c3ccc(Br)cc3c2=O)cc1
    4528	-3	5	13	13	7	-0.4
CSc1ccc(/C=C/C(=O)N2CCN(c3ccccn3)CC2)cc1
    6236	-17	4	11	3	1	3.3
CCN1CCN(C(c2cccs2)C(C)NC(=O)c2cccc(OC)c2)CC1 (stereo unspecified)
    5537	-22	5	9	3	-3	-10
Cc1cc(NC(=O)C2CC(=O)N(c3cccc(C)c3C)C2)no1 (stereo unspecified)
    3557	-15	-4	2	4	0	1.6
Cc1ccccc1C(=O)Nc1nnc(SC(C)C)s1
    3387	-53	15	1	-4	-2	3.7
Cc1ccc2c(c1)C1CN(C)CCC1N2S(=O)(=O)c1ccc(C(C)C)cc1 (stereo unspecified)
    9206	-7	6	2	.	-1	1.3
O=C(O)CCC(=O)Nc1ccc(-c2nnc(-c3ccco3)o2)cc1
    5545	-4	8	7	3	13	0.0

Bioassay records (PubChem)
